CSC inhib: cancer stem cell viability inhibitors, primary screen, luminescence. actives 1.1% (n = 300,000). AID 2717, 2010. cancer stem cell-like cells viability. inhibition, % at 7.5 µM;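 active = mean at 75% or more and at least half the replicates too; tested in HMLE shEcad cells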;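 also: 0% = median of negative and 100% = median of positive control wells; the first replicate is given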
eIF4H FP inh: human eIF4H binding inhibitors, primary screen, translation initiation inhibitor project, biochemical, uHTS, fluorescence polarization; actives 0.94% (n = 290,000); eIF4H fluorescence polarization binding assay; Eukaryotic translation initiation factor 4H (Homo sapiens), Q15056; AID 2012, 2009; inhibition, % at 35 µM;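 active = 50% or more with normal probe brightness, or confirmed in later tests; about a fifth of its hits are not listed in these tables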;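 also: calls also rest on retests at 20 µM and on dose response follow-up; 0% = protein and probe with vehicle and 100% = probe without protein; strong numbers were not always called active; many hits fall short of the cut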
MT1-MMP act inh: blockers of MT1-MMP proenzyme processing, primary screen, HT1080 RFP-PRO-GFP cells, GFP/RFP fluorescence; actives 0.061% (n = 360,000); GFP/RFP ratio change, % at 20 µM; GFP/RFP ratio fluorescence, overnight; percent of plate control window, DMSO zero;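 active = GFP/RFP ratio change of at least 30% with cell ATP level not reduced by more than half and red fluorescence within 50% of control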; also: strong numbers were not always called active
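Material – HT1080 RFP-PRO-GFP cells · Control set – DMSO wells and RFP-L50D-GFP cells · Incubation – overnight cell settling, then overnight compound exposure, 37 °C, 5% CO2 · Compound dosing – single-point 20 µM compound, 1% DMSO · Read-out – GFP/RFP fluorescence ratio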
Env fusion inh: inhibitors of HIV-1 Env-driven cell-cell fusion, primary screen, HeLa-JRFL effector, CEM21 target cells, luciferase | AID 651610, 2012 | inhibition, % at 12.3 µM | actives 1.1% (n = 360,000);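 active = mean replicate inhibition score of at least 50 and every replicate individually at or above 50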;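 also: 0% = plate neutral controls and 100% = maraviroc near 300 nM; one replicate is shown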
Yeast UUG start: modulators of yeast start codon fidelity, primary screen, whole organism, S. cerevisiae, single point, plate reader | S. cerevisiae UUG-firefly luciferase reporter, luminescence/redox ratio | AID 602363, 2012 | activity score, % at 18.7 µM | actives 0.13% (n = 350,000);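 active = replicate mean at a twofold rise or more, about +100% in these data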;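 also: firefly luciferase made from a UUG start codon reports start codon fidelity; reporter light over untreated wells divided by growth signal over untreated wells; some hits fall short of that in this replicate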
Rce1 inhib: yeast Rce1p protease inhibitors, primary screen, biochemical, fluorescence, cell-free homogeneous | yeast membranes, quenched prenylated peptide cleavage fluorescence | calls only | actives 0.27% (n = 290,000) | AID 2563, 2010;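 active = fall in fluorescence gain of 50% or more versus controls, with final raw signal at or below 3038400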;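 also: plate controls were neutral control wells for no effect and wells lacking membranes for full effect; tested at 10 µM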
PABP polyA inh: PABP poly(A) RNA binding inhibitors, primary screen, biochemical, fluorescence polarization, uHTS | inhibition, % at 35 µM | AID 2014, 2009 | Polyadenylate-binding protein 1 (Homo sapiens), P11940 | actives 1% (n = 290,000);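 active = 50% or more with normal probe brightness, or confirmed in later tests; about a fifth of its hits are not listed in these tables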;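 also: calls also rest on retests at 20 µM and on dose response follow-up; controls were probe without protein and protein plus probe with vehicle; some compounds called inactive have numbers as strong as hits; many hits fall short of the cut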
Target sequence (P11940 whole entry, looked up): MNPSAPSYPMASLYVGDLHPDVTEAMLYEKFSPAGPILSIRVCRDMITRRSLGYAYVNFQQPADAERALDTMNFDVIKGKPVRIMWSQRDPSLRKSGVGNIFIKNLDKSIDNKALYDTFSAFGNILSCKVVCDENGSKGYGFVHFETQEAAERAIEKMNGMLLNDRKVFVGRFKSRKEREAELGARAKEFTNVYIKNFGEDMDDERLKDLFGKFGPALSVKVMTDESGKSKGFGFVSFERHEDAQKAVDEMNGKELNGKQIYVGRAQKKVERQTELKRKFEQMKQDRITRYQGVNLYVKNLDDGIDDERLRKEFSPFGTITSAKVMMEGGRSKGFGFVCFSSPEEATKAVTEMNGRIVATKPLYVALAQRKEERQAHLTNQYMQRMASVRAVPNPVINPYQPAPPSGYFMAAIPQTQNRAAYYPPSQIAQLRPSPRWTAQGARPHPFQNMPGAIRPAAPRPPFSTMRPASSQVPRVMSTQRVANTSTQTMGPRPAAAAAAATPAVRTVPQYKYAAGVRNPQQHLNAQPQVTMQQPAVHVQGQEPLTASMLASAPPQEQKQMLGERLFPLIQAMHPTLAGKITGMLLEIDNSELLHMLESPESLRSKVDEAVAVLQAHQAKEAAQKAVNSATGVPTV
MT1-MMP act inh RFP: further read-out of MT1-MMP act inh, marked with its call; RFP signal change, %; measured here: RFP expression control read;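 0 = vehicle wells; hits needed this value within 50% of zero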
* marks the source's active call; other numbers are inactive results; i = inactive; nt = not tested or not shown; & = joins results of further samples.

Results follow in this order: CSC inhib | eIF4H FP inh | MT1-MMP act inh | MT1-MMP act inh RFP | Env fusion inh | Yeast UUG start | Rce1 inhib | PABP polyA inh
> CCOC(=O)C1=C(COC(=O)Cc2ccccc2[N+](=O)[O-])NC(=O)NC1C (centres undefined)
→ nt | nt | 3.3 | 3.5 | -22.1 | 2.5 | nt | nt
> O=C(COc1ncnc2ccc(Br)cc12)NCc1ccco1
→ -2.4 | -1.1 | 4.1 | 5.2 | 16.5 | -11.8 | i | 5.1
> O=C1NCCOC(=O)[C@@H](Cc2ccc(F)cc2)C/C=C\C[C@@H]1CC(=O)N(CCO)Cc1ccccc1
→ -9.6 | nt | 6.9 | -7.0 | -23.9 | 12.3 | nt | nt
> Cc1c(O)ccc(-c2[nH]ncc2-c2nc3ccccc3s2)c1O
→ 0.2 | -15.9 | -5.2 | -15.8 | nt | 0.3 | i | 6.1
> COc1ccccc1NS(=O)(=O)c1cc(NC(=O)c2cnccn2)ccc1N1CCOCC1
→ -6.9 | -1.4 | -0.9 | -1.6 | -19.4 | -13.5 | i | 11.1
> CN(C)S(=O)(=O)c1ccc(S(=O)(=O)N(CC(=O)Nc2ccccc2)CC2CCCO2)cc1 (centres undefined)
→ -5.5 | 0.2 | 1.5 | 0.0 | nt | -12.1 | nt | 7.4
> COc1cc2c3c(c1OC)C(=O)CC3CCCC2 (centres undefined)
→ nt | nt | 2.4 | 6.0 | -30.0 | -8.9 | nt | nt
> O=C(Nc1ccc(C(=O)O)cc1)/C(=C\C=C\c1ccccc1)NC(=O)c1cccc(Br)c1
→ -3.6 | 2.7 | 4.0 | -0.8 | -1.4 | nt | i | 7.9
> Cn1c(=O)c2c(ncn2CCCc2ccccc2)n(C)c1=O
→ 3.5 | 3.1 | 0.3 | 1.0 | 6.8 | -25.1 | i | -11.4
> CCOC(=O)c1sc(NC(=O)CCCCl)nc1C
→ -6.7 | -0.1 | 3.9 | 5.2 | -14.7 | nt | i | 21.1
> Cc1oncc1C(=O)Nc1cccc2ccccc12
→ nt | 1.0 | 1.0 | 2.1 | -13.5 | 22.9 | i | 12.4
> Cc1cccc(NC(=O)c2ccc(NCCO)c([N+](=O)[O-])c2)n1
→ -4.4 | -8.6 | 9.1 | 1.5 | -35.3 | nt | i | -3.2
> O=C(CCl)Nc1cn(-c2ccccc2)nc1-c1ccc(F)cc1
→ 7.2 | 0.7 | -3.8 | -3.6 | 4.9 | nt | i | -7.2
> c1ccc(COc2ccc(OCCCN3CCCC3)cc2)cc1
→ -18.0 | 9.9 | -0.1 | 2.5 | nt | -45.2 | i | -3.2
> CCN(CC)c1ccc(NC(=O)COc2ccc(C#N)cc2)cc1S(=O)(=O)Nc1ccc(OC)cc1
→ 14.2 | 7.1 | 6.8 | -3.1 | -15.4 | nt | i | 0.4

Of the compounds above, these contain a Cl atom.
Results follow in this order: CSC inhib | eIF4H FP inh | MT1-MMP act inh | MT1-MMP act inh RFP | Env fusion inh | Yeast UUG start | Rce1 inhib | PABP polyA inh
> CCOC(=O)c1sc(NC(=O)CCCCl)nc1C
→ -6.7 | -0.1 | 3.9 | 5.2 | -14.7 | nt | i | 21.1
> O=C(CCl)Nc1cn(-c2ccccc2)nc1-c1ccc(F)cc1
→ 7.2 | 0.7 | -3.8 | -3.6 | 4.9 | nt | i | -7.2

More compounds
Results follow in this order: CSC inhib | eIF4H FP inh | MT1-MMP act inh | MT1-MMP act inh RFP | Env fusion inh | Yeast UUG start | Rce1 inhib | PABP polyA inh
> Cc1ccccc1N1CCN(C2CCCN(C(=O)c3cnsn3)C2)CC1 (centres undefined)
→ -8.9 | -5.0 | -2.3 | -2.1 | -4.7 | -5.3 | i | -6.1
> CCOc1ccccc1-n1c(COc2ccccc2)nnc1SCC(N)=O
→ 0.6 | -9.5 | 0.5 | -0.1 | 11.1 | -7.7 | i | -7.1
> Cc1ccc(CN2CCN(CCC(C)C)C(CCO)C2)s1 (centres undefined)
→ -0.7 | -3.4 | 3.9 | 7.1 | -15.1 | nt | i | -10.7
> Cc1nn(C)cc1S(=O)(=O)Nc1ccccc1Br
→ -2.7 | -8.9 | 1.5 | 4.1 | nt | 2.4 | i | -13.4
> Cc1c(C(=O)OCC[N+]2(C)CCCCC2)oc2ccccc12
→ 0.5 | 3.5 | -1.5 | -10.6 | 2.9 | -3.4 | i | 54.6*
> COc1ccccc1C1CC(=O)Nc2cc3c(cc21)OCCO3 (centres undefined)
→ 72.0 | -9.0 | 2.1 | -11.9 | nt | -2.6 | i | -4.7
> O=C(O)C(c1ccccc1)C1(O)CCCC1 (centres undefined)
→ -10.2 | -1.2 | 1.1 | 2.6 | nt | -16.4 | i | 4.1
> O=C(Cn1cnc2ccccc2c1=O)Nc1ccc(N2CCOCC2)cc1
→ nt | -8.1 | -0.8 | 3.8 | 5.7 | nt | i | 0.1
> Cc1cc(N2CCOCC2)n2ncc(-c3ccccc3Cl)c2n1
→ -1.0 | -19.2 | -1.7 | -1.5 | -37.0 | -18.2 | i | -2.7
> Cc1nn(CC(=O)NCCc2ccc(Cl)cc2Cl)c(C)c1[N+](=O)[O-]
→ -5.3 | -13.3 | 2.7 | 2.7 | 7.9 | nt | i | -6.0
> Cc1ccc(Nc2nc(N3CCN(C)CC3)nc(N)c2[N+](=O)[O-])cc1C
→ 5.6 | -6.1 | nt | nt | nt | nt | i | -15.9
> O=S(=O)(NCc1ccc2c(c1)OCO2)c1ccc2oc3ccccc3c2c1
→ 9.0 | nt | -0.1 | 3.2 | 9.2 | nt | i | nt
> CCOCc1nnc(NC(=O)c2c(OC)cccc2OC)s1
→ -13.5 | -1.1 | 1.9 | 3.9 | -33.3 | -17.6 | i | -10.5
> C/C=C/c1ccc(OCCOc2ccc(C=O)cc2)c(OC)c1
→ 14.5 | -5.8 | 0.9 | -3.3 | 1.8 | -7.1 | i | -3.4
> CCOC(=O)c1c(NCC2CCCO2)c2ccccc2[nH]c1=O (centres undefined)
→ -9.8 | 5.7 | -2.1 | 2.3 | nt | nt | i | 7.5
> O=C1c2ccccc2NC(c2cn[nH]c2-c2ccccc2)N1O (centres undefined)
→ 7.9 | -2.3 | 5.5 | 5.7 | 27.2 | -3.8 | i | -13.8
> COCCNC(=S)NNc1ccc(Cl)c(C(=O)O)c1
→ -18.2 | -0.9 | -0.2 | 2.3 | -2.2 | nt | i | 5.1
> COc1ccc(OC)c(-c2nnc3n2N=C(c2ccc(OC)c(OC4CCOC4)c2)CS3)c1 (centres undefined)
→ 44.1 | nt | 20.3 | 3.8 | -182.4 | -19.2 | nt | nt
> COc1ccc(CCn2c(-c3cc([N+](=O)[O-])cc([N+](=O)[O-])c3)nc3nc4ccccc4nc32)cc1
→ -1.9 | 0.2 | 2.3 | -1.1 | 2.9 | nt | i | -5.4
> COCCCNc1nc(N)c([N+](=O)[O-])c(NCC2CCCO2)n1 (centres undefined)
→ 6.8 | 4.5 | -0.9 | -2.5 | -11.8 | nt | i | 1.8
> O=C(c1ccc(F)cc1)N1CCCC(c2nc(-c3ccncc3)no2)C1 (centres undefined)
→ -1.1 | nt | 6.4 | -9.7 | 2.2 | -4.7 | nt | nt
> CN(Cc1cccc2ncccc12)C(=O)CC1C(=O)NCCN1Cc1ccc(F)cc1 (centres undefined)
→ -12.9 | 11.5 | -0.8 | 1.7 | 10.3 | -23.2 | i | 6.7
> Cc1ccc(S(=O)(=O)NC(C)(C)CSc2ncccn2)cc1
→ 0.3 | 5.7 | -4.9 | -4.8 | -15.0 | nt | i | -2.0
> CC1C(=O)N2CCCc3cc(S(=O)(=O)N4CCN(c5cccc(Cl)c5)CC4)cc1c32 (centres undefined)
→ 2.6 | nt | -1.1 | -6.0 | nt | -19.7 | i | nt
> CC(Oc1ccc2c(-c3ccccc3)cc(=O)oc2c1)C(=O)NCC1CCC(C(=O)O)CC1 (centres undefined)
→ -0.8&-25.6 | -8.2 | 0.9&3.0 | 0.5&2.7 | nt | -7.4&-8.1 | i | 7.5
> Cc1cc(C)nc(N/N=C/C=C/c2ccccc2)n1
→ -23.0 | -0.3 | 2.8 | 3.8 | -33.4 | -7.5 | i | 5.8
> Cn1c(SCC(N)=O)nnc1C1CCN(C(=O)NCc2ccccc2)CC1
→ -15.0 | -9.1 | -12.8 | 5.6 | -21.6 | -18.8 | i | 0.8
> O=C(Nc1cccnc1)c1cc2cc(Br)ccc2o1
→ 3.5 | -0.9 | 3.5 | -4.4 | -195.4 | -35.7 | i | 10.3
> COc1ccc(NC(=S)Nc2ccc(N(C)C(C)=O)cc2)cc1
→ 11.0 | 0.1 | 6.1 | 7.7 | -4.5 | -21.6 | i | -3.9
> O=C(CCC(=O)N1CCN(c2ccc(F)cc2)CC1)N1CCN(c2ccc(F)cc2)CC1
→ -7.3 | -2.0 | 2.4 | -13.2 | 28.4 | -4.4 | i | 7.0
> Cc1nn(C)c(C(=O)Nc2ccc(S(=O)(=O)NC34CC5CC(CC(C5)C3)C4)cc2)c1Br
→ nt | 0.4 | -6.0 | -18.5 | nt | -14.8 | i | -5.1
> Cc1cc(SCC(N)=O)nc(SCC(=O)c2ccccc2)n1
→ 8.6 | -4.7 | 2.2 | 0.5 | -7.8 | -14.2 | i | 2.9
> COc1ccc2[nH]c(C(=O)O)c(CCN3C(=O)c4ccc(C(=O)O)cc4C3=O)c2c1
→ -12.1 | -1.0 | -0.8 | 2.5 | -9.7 | -6.4 | i | 6.9
> O=C1CCN(Cc2ccc([N+](=O)[O-])cc2)CCN1[C@H](CO)c1ccccc1
→ 17.0 | 5.2 | 4.6 | -0.1 | 0.9 | -11.2 | i | 6.7
> CCN(C(=O)Nc1cccc2ccccc12)c1ccccc1
→ nt | nt | 1.3 | -1.3 | -1.0 | -2.5 | nt | nt
> C/C(CC1CC(C)(C)OC1=O)=N/Nc1nc(-c2ccccc2)cs1 (centres undefined)
→ -12.2 | -11.6 | -3.5 | -4.0 | nt | nt | i | -20.4
> CC(=O)Nc1ccc(S(=O)(=O)N2CCN=C2SCc2ccc(F)cc2)cc1
→ 7.8 | 4.8 | 1.2 | -9.9 | 4.4 | -10.2 | i | 1.3
> CCOC(=O)[C@H]1[C@H]2COc3ccccc3[C@@H]2N2C(=O)[C@@H](CO)NC(=O)[C@@]12C
→ -13.7 | nt | 3.1 | 1.8 | 1.0 | -11.4 | nt | nt
> COc1cc(CN2CCC(C(=O)NC(c3ccc(-c4ccccc4)cc3)c3cnccn3)CC2)cc(OC)c1 (centres undefined)
→ nt | nt | 4.6 | -0.6 | -6.9 | 3.2 | nt | nt
> CN(C)CCNC(=O)C(=O)Nc1ccc2c(c1)N(S(=O)(=O)c1cccs1)CCC2
→ 22.1 | nt | -4.8 | -2.5 | 7.0 | nt | i | nt
> CCCCC(CCC(=O)Nc1ccn(-c2ccccc2)n1)C(=O)O (centres undefined)
→ -3.5 | -13.1 | 10.5 | 8.3 | 8.3 | 13.4 | i | -3.0
> Cc1nc2oc(C(=O)c3ccc(Br)cc3)c(N)c2c2c1COC(C)(C)C2
→ -14.3 | -1.6 | 14.1 | -1.9 | nt | 2.4 | i | 6.9
> CS(=O)(=O)N1CCCC(C(=O)NCCCN2CCc3ccccc3C2)C1 (centres undefined)
→ -6.9 | 4.6 | -4.6 | 5.0 | nt | -22.8 | i | 2.1
> COC(=O)Nc1ccc(S(=O)(=O)N2CCC(C(=O)NCc3ccc4c(c3)OCO4)CC2)cc1
→ -6.4 | nt | 3.2 | 1.9 | -6.6 | -19.0 | nt | nt

Assay outcomes deposited in PubChem BioAssay by several laboratories.
